Lassa entry inh: blocks Lassa virus binding to or entry into cells; hit rate 1.2% among 300,000; Potency, µM (titrated, usually from 37.9 µM), for the others: top-dose activity change, negative = inhibition, actives largely listed as inhibitors; AID 540256; Lassa virus pseudotype entry inhibition, cell reporter; control for the full effect not named in the record; active means well fitted inhibition curve with a large enough effect; inconclusive means small, poorly fitted or top-dose-only effect, or effect the other way; inactive means flat fitted curve, though single readings scatter; tested in HEK293 cells; further: nearly all actives have a fitted effect of over 50% in size; luciferase read-out
StopGo reporter: FMDV 2A StopGo reporter, luciferase signal | AID 1159524 | hit rate 1.2% among 410,000 | human cells with a luciferase reporter of 2A StopGo recoding; control for the full effect not named in the record | Potency, µM (top dose mostly 57.9 µM), without a hit: at the highest dose signal change, negative = less light; active = well fitted falling curve with a large enough effect; inconclusive = small, poorly fitted or top-dose-only effect; inactive = no such curve, though single readings can be large or run the other way; tested in HEK293T cells; further: nearly all actives have a fitted effect of over 45% in size; luciferase light after 4 h
Active calls of the source: *; u = inconclusive; [ ] = another dose, or the depositor's remark. On the % scale 0 is the no-effect control and ±100 the full control effect; potency means the concentration at half of the fitted maximal effect.

SMILES	Lassa entry inh	StopGo reporter
NS(=O)(=O)c1ccc(CCNC(=O)Cn2c(-c3cccs3)cc3ccccc32)cc1	7%[46.1 µM]	-21%
O=C(COCc1cc(-c2cccs2)on1)Nc1cccc(O)c1	18%[46.1 µM]	-19%
Cc1ccc(C)c(CN2CCC(CNC(=O)C(CC(C)C)N3Cc4ccccc4C3=O)CC2)c1 (stereo not drawn)	-27%[46.1 µM]	-17%
O=C(NC1CC1)c1ccc(Cn2c(SCc3ccccc3F)nc3cccnc32)cc1	22%[46.1 µM]	-4%
CCOc1ccc(NC(=O)c2cn3c4c(ccc(Cl)c4c2=O)OC(C)C3)cc1 (stereo not drawn)	-4%[46.1 µM]	-6%
Cc1ccc(NS(=O)(=O)c2ccc3c(c2)CC(C)N3C(=O)C2CCC2)cc1Cl (stereo not drawn)	-26%[46.1 µM]	12%
CSc1ncc(C(=O)NCc2cccc(Br)c2)c(-c2ccccc2)n1	3%[46.1 µM]	7%
CCOc1ccccc1CNC(=O)CN1C(=O)c2cccnc2Oc2ccc(C)cc21	u	-8%
CCc1ccc(CNC(=O)C2CCN(c3nn4cc(-c5ccc(OC)cc5)nc4s3)CC2)cc1	4%[46.1 µM]	21%
Cc1ccc(S(=O)(=O)c2cn(Cc3ccccc3)c3cc(N4CCCC4)c(F)cc3c2=O)c(C)c1	-4%[46.1 µM]	-5%
O=c1c(S(=O)(=O)c2ccccc2)cn(Cc2ccccc2)c2cc(N3CCOCC3)c(F)cc12	u	-8%
Cc1ccc(Cl)cc1N1CCN(S(=O)(=O)c2ccc3c(c2)CC(C)N3C(=O)C2CCC2)CC1 (stereo not drawn)	18%[46.1 µM]	-16%
CCN(CC)c1cc2c(cc1F)c(=O)c(S(=O)(=O)c1cccc(C)c1)cn2C	-2%[46.1 µM]	5%
O=C(Cn1cc(S(=O)(=O)Cc2ccc(F)cc2)c2ccccc21)NCc1ccccc1	4%[46.1 µM]	-1%
O=C(NCc1ccccc1)c1ccc(CSc2nc3cccnc3n2Cc2ccccc2F)cc1	-30%[46.1 µM]	-20%

3 entries from above, arranged by SMILES length, rising:
SMILES	Lassa entry inh	StopGo reporter
O=C(NCc1ccccc1)c1ccc(CSc2nc3cccnc3n2Cc2ccccc2F)cc1	-30%[46.1 µM]	-20%
NS(=O)(=O)c1ccc(CCNC(=O)Cn2c(-c3cccs3)cc3ccccc32)cc1	7%[46.1 µM]	-21%
O=c1c(S(=O)(=O)c2ccccc2)cn(Cc2ccccc2)c2cc(N3CCOCC3)c(F)cc12	u	-8%

More compounds follow:
SMILES	Lassa entry inh	StopGo reporter
Cc1cccc(OCC(=O)Nc2ccc3nc(Nc4cccc(Cl)c4)cc(C)c3c2)c1	-18%[46.1 µM]	-2%
Cc1ccccc1CNC(=O)c1ccc(Cn2c(SCc3ccccc3)nc3cccnc32)cc1	17%[46.1 µM]	-11%
O=C(NCCc1ccccc1)c1ccc(CSc2nc3cccnc3n2Cc2ccccc2)cc1	-20%[46.1 µM]	-24%
CN1CCN(C(=O)Cn2c(-c3cccs3)cc3cc(Cl)ccc32)CC1	6%[46.1 µM]	-3%
Cc1oc(-c2cccc(Cl)c2)nc1CSc1nc2ncccc2[nH]1	28%[46.1 µM]	-13%
Cc1ccc(C)c(CSc2nc3ncccc3[nH]2)c1	7%[46.1 µM]	-8%
Cc1ccc(S(=O)(=O)c2cn(C)c3cc(N4CCN(c5ccccc5)CC4)c(F)cc3c2=O)cc1	u	u
CSc1ncc(C(=O)N2CCN(c3ccc(F)cc3)CC2)c(C)n1	4%[46.1 µM]	-18%
CCN(CC)c1ccc(NC(=O)COCc2cc(-c3ccc4c(c3)OCO4)on2)c(C)c1	-11%[46.1 µM]	-17%
COc1cc(OC)c(N(C)C(=O)Cn2ncc3c([nH]c4ccccc43)c2=O)cc1Cl	-5%[46.1 µM]	-26%
CSc1ncc(C(=O)N2CCN(c3cccc(Cl)c3)CC2)c(C)n1	8%[46.1 µM]	-6%
COC(=O)c1cc(S(=O)(=O)N2CCN(c3ccc(C)cc3C)CC2)cn1C	-18%[46.1 µM]	-9%
Cc1cccc(C)c1NC(=O)CN(C)S(=O)(=O)c1ccc2[nH]c3c(c2c1)CCCC3	17%[46.1 µM]	u
CCCS(=O)(=O)N1CC(=O)N(c2ccc(C)cc2)C(C)(C(=O)NC2CCCCCC2)C1 (stereo not drawn)	12%[46.1 µM]	8%
O=C(COCc1cc(-c2cccs2)on1)NCc1ccc(Cl)cc1	-15%[46.1 µM]	-6%
CCCNC(=O)C1CCN(c2ncnc3c2nc2n3CCCCC2)CC1	-13%[46.1 µM]	-6%
CC(=O)c1ccc(N2CCN(S(=O)(=O)c3ccc4[nH]c5c(c4c3)CCCC5)CC2)cc1	u	-16%
CCc1ccccc1N1C(=O)CN(S(=O)(=O)CC)CC1(C)C(=O)NC1CCCCC1 (stereo not drawn)	14%[46.1 µM]	0%
COc1ccc(CCNC(=O)C(CC(C)C)N2Cc3ccccc3C2=O)c(OC)c1OC (stereo not drawn)	-24%[46.1 µM]	-3%
CC(=O)c1ccc(N2CCN(c3ncnc4c3nc3n4CCCC3)CC2)cc1	-14%[46.1 µM]	18µM*
CC1Cn2cc(C(=O)Nc3cccc(C(F)(F)F)c3)c(=O)c3c(Cl)ccc(c32)O1 (stereo not drawn)	10%[46.1 µM]	-13%
O=C(COCc1cc(-c2ccco2)on1)Nc1cccc(Cl)c1Cl	27%[46.1 µM]	-4%
Cc1ccc(NC(=O)Cn2cc(S(=O)(=O)Cc3ccccc3)c3ccccc32)cc1C	u	-16%
Cc1cc(Nc2cccc(Cl)c2)nc2ccc(NC(=O)c3cncc(Br)c3)cc12	-21%[46.1 µM]	-13%
COc1ccc(NC(=O)Cn2c(SCc3ccc(F)cc3)nc3cccnc32)cc1OC	27%[46.1 µM]	2%
COc1ccc(CC(=O)Nc2ccc3nc(Nc4cccc(Cl)c4)cc(C)c3c2)cc1OC	u	u
COc1cccc(NC(=O)CC(C)S(=O)(=O)c2ccc3c(c2)NC(=O)CO3)c1 (stereo not drawn)	20%[46.1 µM]	6%
COc1ccccc1CC(=O)Nc1ccc2nc(Nc3cccc(C(F)(F)F)c3)cc(C)c2c1	u	u
CCCn1cc(S(=O)(=O)c2ccc(OC)cc2)c(=O)c2cc(F)c(N3CCCC(C)C3)cc21 (stereo not drawn)	u	0%
CCOC(=O)c1cccc(NC(=O)N2CCC(CN3CCCCCC3)CC2)c1	30%[46.1 µM]	8%

Entries of single compounds from above.
CCCS(=O)(=O)N1CC(=O)N(c2ccc(C)cc2)C(C)(C(=O)NC2CCCCCC2)C1 (stereo not drawn) in the list: Lassa entry inh = 12%[46.1 µM]; StopGo reporter = 8%
Cc1ccc(NS(=O)(=O)c2ccc3c(c2)CC(C)N3C(=O)C2CCC2)cc1Cl (stereo not drawn) in the list: Lassa entry inh = -26%[46.1 µM]; StopGo reporter = 12%
Cc1ccc(C)c(CN2CCC(CNC(=O)C(CC(C)C)N3Cc4ccccc4C3=O)CC2)c1 (stereo not drawn) in the list: Lassa entry inh = -27%[46.1 µM]; StopGo reporter = -17%

Following part:
SMILES	Lassa entry inh	StopGo reporter
CSc1cccc(NC(=O)C2CCN(c3ncnc4c3nc3n4CCCCC3)CC2)c1	-24%[46.1 µM]	-21%
COC(=O)c1ccccc1NC(=O)c1cn2c3c(ccc(Cl)c3c1=O)OC(C)C2 (stereo not drawn)	-6%[46.1 µM]	-8%
CCCn1cc(S(=O)(=O)c2cccc(Cl)c2)c(=O)c2cc(F)c(N3CCCC3)cc21	-12%[46.1 µM]	28%
CCCn1c2ccccc2c2cnn(CC(=O)N3CCN(c4ccccc4F)CC3)c(=O)c21	3%[46.1 µM]	-16%
CCCn1c2ccccc2c2cnn(CC(=O)N(C)c3ccc(F)cc3)c(=O)c21	-23%[46.1 µM]	u
Cc1ccc(-n2c(=O)c3c(c4cc(C)ccc4n3C)n(CC(=O)NCCC3=CCCCC3)c2=O)cc1	16%[46.1 µM]	-14%
CC1CCCCN1c1cc2c(cc1F)c(=O)c(S(=O)(=O)c1ccccc1)cn2Cc1ccccc1 (stereo not drawn)	-23%[46.1 µM]	0%
Cc1cccc(S(=O)(=O)c2cn(C)c3cc(N4CCCCCC4)c(F)cc3c2=O)c1	3%[46.1 µM]	-10%
O=C(NCc1cccs1)c1ccc(Cn2c(SCc3ccccc3)nc3cccnc32)cc1	-29%[46.1 µM]	-26%
CCOc1ccc(C(=O)Nc2ccc(-c3nnc4n3CCCCC4)cc2)cc1OCC	7%[46.1 µM]	-4%
COc1ccc(Nc2cc(C)c3cc(NC(=O)Cc4c(F)cccc4Cl)ccc3n2)cc1	-14%[46.1 µM]	-29%
COCCNC(=O)CCN1C(=O)c2cccnc2Oc2ccc(C)cc21	13%[46.1 µM]	9%
COc1ccc(-c2cn3nc(N4CCC(C(=O)Nc5ccc(C)cc5)CC4)sc3n2)cc1	12%[46.1 µM]	0%
O=C(COCc1cc(-c2ccco2)on1)Nc1cc(Cl)ccc1O	5%[46.1 µM]	-19%
Cc1oc(-c2cccc(Br)c2)nc1Cn1c(SCc2cccc(F)c2)nc2cccnc21	9%[46.1 µM]	-19%

Shown with values under each structure: entries from further up.
Fields – Lassa entry inh, StopGo reporter
CC(=O)c1ccc(N2CCN(S(=O)(=O)c3ccc4[nH]c5c(c4c3)CCCC5)CC2)cc1
→ u, -16%
CCc1ccccc1N1C(=O)CN(S(=O)(=O)CC)CC1(C)C(=O)NC1CCCCC1 (stereo not drawn)
→ 14%[46.1 µM], 0%

A section taken from the entries so far:
SMILES	Lassa entry inh	StopGo reporter
NS(=O)(=O)c1ccc(CCNC(=O)Cn2c(-c3cccs3)cc3ccccc32)cc1	7%[46.1 µM]	-21%
O=C(COCc1cc(-c2cccs2)on1)Nc1cccc(O)c1	18%[46.1 µM]	-19%
Cc1ccc(C)c(CN2CCC(CNC(=O)C(CC(C)C)N3Cc4ccccc4C3=O)CC2)c1 (stereo not drawn)	-27%[46.1 µM]	-17%
O=C(NC1CC1)c1ccc(Cn2c(SCc3ccccc3F)nc3cccnc32)cc1	22%[46.1 µM]	-4%
CCOc1ccc(NC(=O)c2cn3c4c(ccc(Cl)c4c2=O)OC(C)C3)cc1 (stereo not drawn)	-4%[46.1 µM]	-6%

Later entries:
SMILES	Lassa entry inh	StopGo reporter
CCCOc1ccc(CNC(=O)CN2C(=O)c3cccnc3Oc3ccc(C)cc32)cc1	u	-14%
Cc1cc(C)c(NC(=O)Cn2cc(S(=O)(=O)Cc3ccccc3F)c3ccccc32)c(C)c1	-12%[46.1 µM]	4%
Cc1ccc(NC(=O)CC(C)S(=O)(=O)c2ccc3c(c2)NC(=O)CO3)cc1Cl (stereo not drawn)	6%[46.1 µM]	-35%
COc1ccc(-c2cn3nc(N4CCCC(C(=O)Nc5ccccc5OC)C4)sc3n2)cc1 (stereo not drawn)	-3%[46.1 µM]	-4%
Cc1cccc(S(=O)(=O)c2cn(Cc3ccc(F)cc3)c3cc(N4CCCCC4)c(F)cc3c2=O)c1	2%[46.1 µM]	4%
Cc1ccc(N(C)S(=O)(=O)c2ccc3[nH]c4c(c3c2)CCCC4)cc1	u	-9%
COc1ccc(N2CCN(S(=O)(=O)c3ccc4c(c3)CC(C)N4C(C)=O)CC2)cc1 (stereo not drawn)	-21%[46.1 µM]	u
COc1ccc(-c2noc(CSCC(=O)Nc3ccc(C)cc3Br)n2)cc1OC	-19%[46.1 µM]	0%
CCS(=O)(=O)N1CC(=O)N(c2ccc(Cl)cc2)C(C)(C(=O)NC2CCCCC2)C1 (stereo not drawn)	21%[46.1 µM]	-17%
COc1cc(CNC(=O)c2cnc(SC)nc2-c2ccccc2)cc(OC)c1OC	18%[46.1 µM]	-4%
Cc1ccc(NC(=O)C2CCCN(c3ncnc4c3nc3n4CCCCC3)C2)cc1F (stereo not drawn)	-26%[46.1 µM]	u
COc1ccccc1NC(=O)Cn1cc(S(=O)(=O)Cc2ccccc2)c2ccccc21	-1%[46.1 µM]	-17%
CCn1cc(S(=O)(=O)c2cc(C)cc(C)c2)c(=O)c2cc(F)c(N3CCCC3)cc21	5%[46.1 µM]	40%[activator]
Cc1ccc(S(=O)(=O)c2cn(Cc3ccc(F)cc3)c3cc(N4CCCC4)c(F)cc3c2=O)cc1	-11%[46.1 µM]	-3%
Cc1ccc(NC(=O)N2CCC(CN3CCCCC3)CC2)c(Cl)c1	19%[46.1 µM]	-2%

Only part of the results is shown. The share of hits here may be higher or lower than overall.
